Calb biofilm kill = mixture kills Candida albicans biofilm cells. inhibition, % at 7.6 µM. 0.02% of 120,000 active. C. albicans biofilm persisters + clotrimazole, fluorescence viability; primary screen in compound mixtures of four per well;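 active = inhibition above 30.3% in the primary screen of four-compound pools, then above 30% when the compound was retested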;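 note: compounds exposed to preformed 24 h biofilms for 48 h; the number belongs to the whole pool; some results filed as inactive read as strong as hits; inactives centre near 12; 0% = biofilm with clotrimazole alone and 100% = kill control; retested singly at about 60 µM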
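Incubation: 24 h biofilm formation, then 48 h compound exposure, 37 °C | Material: C. albicans biofilms | Buffer or medium: RPMI/MOPS medium, pH 7.0 | Measured by: 2-h Alamar Blue fluorescence, 535/590 nm excitation/emission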
An asterisk follows results filed as active. Not all compounds are listed. The share of hits here may be higher or lower than overall.

Results for CCCCN(CC)S(=O)(=O)c1ccc2c(c1)n(C)c(=O)c(=O)n2C ?
Calb biofilm kill: 6

How did CC(=O)C1=C(O)C(=O)N(c2ccc(Br)cn2)C1c1ccc(Br)cc1 (configuration not stated) do in these assays?
Calb biofilm kill: 13

How did S=c1[nH]nc(-c2cccs2)n1/N=C/c1cn(-c2ccccc2)nc1-c1ccccc1 do in these assays?
Calb biofilm kill: 7

How did COc1ccc(-c2nc(C(=O)O)cs2)cc1OC do in these assays?
Calb biofilm kill: 8

How did O=C(c1ccc(Cl)cc1)N1CCCCC(Cl)C1=O (configuration not stated) do in these assays?
Calb biofilm kill: 6

What do the screens show for `O=C(O)C(C(=O)O)=C1C2CC3CC(C2)CC1C3`?
Calb biofilm kill: 18

Results for Cc1ccc(C(=O)SC2=NCCS2)cc1 ?
Calb biofilm kill: 9

How did C/C(=N/N1CCN(c2ccccc2)CC1)c1cccc([N+](=O)[O-])c1 do in these assays?
Calb biofilm kill: 8

How did NC(=O)Nc1ccc(C(=O)OCC(=O)N(Cc2ccccc2)C2CCS(=O)(=O)C2)cc1 (configuration not stated) do in these assays?
Calb biofilm kill: 15

Results for O=C(CSc1n[nH]c(=O)[nH]c1=O)Nc1ccccc1C(=O)c1ccccc1 ?
Calb biofilm kill: 9

Results for CC(=O)c1cccc(NC(=O)N2C3CCC2CC(NC(=O)C2CC2)C3)c1 (configuration not stated) ?
Calb biofilm kill: 29

Results for COC(=O)c1ccccc1C(=O)N1CCOCCOCCOCC1 ?
Calb biofilm kill: 19

What do the screens show for `CC1(C)CC(=O)C(C2=NC3(CCCCCC3)Cc3ccccc32)=C(O)C1`?
Calb biofilm kill: 22

Results for O=C(CCc1ccccc1)NC(c1cccs1)c1cc(Cl)c2cccnc2c1O (configuration not stated) ?
Calb biofilm kill: 13

What do the screens show for `COc1ccccc1Nc1nnc(Cc2ccccc2)c(=O)[nH]1`?
Calb biofilm kill: 26

Results for CC(=O)Nc1ccc(S(=O)(=O)NCC(=O)OCC(=O)NC(=O)c2cccn2C)cc1 ?
Calb biofilm kill: 5

What do the screens show for `CC(=O)c1ccc(Oc2ccc(C(=O)c3ccc(C)c(C)c3)cc2[N+](=O)[O-])cc1`?
Calb biofilm kill: 7

What do the screens show for `O=C(Nc1ccccc1)N1CCCC1c1cccs1` (configuration not stated)?
Calb biofilm kill: 20

Results for Cc1ccc(CN2CCN(/N=C/C=C/c3ccccc3[N+](=O)[O-])CC2)cc1 ?
Calb biofilm kill: 2

Results for COc1ccc(/C=N/Nc2nc(-c3cccc(S(=O)(=O)N4CCCC4)c3)cs2)cc1OC ?
Calb biofilm kill: 7

What do the screens show for `COC(=O)C(=Nc1ccccc1)/C(C(=O)C(=O)N(C)c1ccccc1)=C(\O)c1ccc(Cl)cc1`?
Calb biofilm kill: 14

What do the screens show for `Cc1ccccc1Nc1scc(-c2ccc(Br)cc2)[n+]1-c1ccccc1C`?
Calb biofilm kill: 13

How did CCOc1ccc(Br)cc1CNc1ccc2c(c1)OCCO2 do in these assays?
Calb biofilm kill: 26

Results for COCC(C)NC(=O)/C(=C/c1ccccc1)c1ccccc1 (configuration not stated) ?
Calb biofilm kill: 4

Results for COc1ccc(CC(NC(C)=O)C(=O)NC2CCN(c3c(Cc4ccccc4)c(C)nc4ncnn34)CC2)c(OC)c1 (configuration not stated) ?
Calb biofilm kill: 20

What do the screens show for `Cc1onc(-c2ccccc2Cl)c1C(=O)NC(=S)Nc1ccccc1C(N)=O`?
Calb biofilm kill: 10

How did Cc1ccc(S(=O)(=O)Cn2nnnc2C(CC(C)C)N2CCN(c3ccccc3)CC2)cc1 (configuration not stated) do in these assays?
Calb biofilm kill: 14

How did Cc1ccc(NC(=O)COC(=O)c2cccc3c(=O)c(C)c(-c4ccccc4)oc23)cc1 do in these assays?
Calb biofilm kill: 11

What do the screens show for `COc1ccccc1C(=O)Nc1ccc2c3c(cccc13)CC2`?
Calb biofilm kill: 6

Results for O=C(/C=C/c1cccc(F)c1)N1CCN(c2ncccn2)CC1 ?
Calb biofilm kill: -2

At a glance, some entries already given:
How did Cc1ccc(S(=O)(=O)Cn2nnnc2C(CC(C)C)N2CCN(c3ccccc3)CC2)cc1 (configuration not stated) do in these assays?
Calb biofilm kill: 14

How did Cc1ccc(NC(=O)COC(=O)c2cccc3c(=O)c(C)c(-c4ccccc4)oc23)cc1 do in these assays?
Calb biofilm kill: 11

What do the screens show for `COc1ccccc1C(=O)Nc1ccc2c3c(cccc13)CC2`?
Calb biofilm kill: 6

Results for O=C(/C=C/c1cccc(F)c1)N1CCN(c2ncccn2)CC1 ?
Calb biofilm kill: -2

Returning to the listing, starting two compounds before the break.
What do the screens show for `COc1ccccc1C(=O)Nc1ccc2c3c(cccc13)CC2`?
Calb biofilm kill: 6

Results for O=C(/C=C/c1cccc(F)c1)N1CCN(c2ncccn2)CC1 ?
Calb biofilm kill: -2

How did CCOC(=O)COc1ccc([N+](=O)[O-])cc1 do in these assays?
Calb biofilm kill: 4

Results for CN1CCN(Cc2nc3ccccc3c(=O)n2Cc2nc(-c3ccc([N+](=O)[O-])cc3)cs2)CC1 ?
Calb biofilm kill: 4

How did N#C/C(=C\c1ccccc1C(F)(F)F)C(=O)Nc1ccccc1F do in these assays?
Calb biofilm kill: 7

What do the screens show for `CCOC(=O)Cn1c(C)cc(COC)c(C#N)c1=O`?
Calb biofilm kill: 2

How did CCCC1CCC(=NNS(=O)(=O)c2ccc(C)c([N+](=O)[O-])c2)CC1 (configuration not stated) do in these assays?
Calb biofilm kill: 10

How did CN1C(=O)C(CC(=O)NCC2CCCCC2)SC1=Nc1ccccc1 (configuration not stated) do in these assays?
Calb biofilm kill: 21

What do the screens show for `Cc1cc(-n2c(C)cc(C(=O)COc3ccc([N+](=O)[O-])cc3)c2C)no1`?
Calb biofilm kill: -9

How did Nc1nn(-c2ccccc2)c(N)c1N=Nc1cccc(F)c1 do in these assays?
Calb biofilm kill: 14

What do the screens show for `Cc1ccccc1NC(=S)N1CCN(Cc2ccc3c(c2)OCO3)CC1`?
Calb biofilm kill: 15

How did C/C(=N\NC(=O)c1cccc(N/N=C(\C)c2ccc([N+](=O)[O-])cc2)c1)c1ccc([N+](=O)[O-])cc1 do in these assays?
Calb biofilm kill: 16

Results for CCN(CCn1cccn1)Cc1nc(-c2ccc(OC)cc2)no1 ?
Calb biofilm kill: 12

Results for Cc1cccc(NC(=O)c2sc(-c3ccccc3)nc2-c2ccc([N+](=O)[O-])cc2)c1 ?
Calb biofilm kill: 6

What do the screens show for `Cc1cccc(C(=O)NCCc2ccc(S(N)(=O)=O)cc2)c1[N+](=O)[O-]`?
Calb biofilm kill: -9

How did Cc1ccc(S(=O)(=O)Nc2ccc(N=Nc3ccc(O)cc3)cc2)cc1 do in these assays?
Calb biofilm kill: 18

How did CC(=O)N1CCN(Cc2nc3cc(NC(=O)Nc4ccccc4)ccc3n2C)CC1 do in these assays?
Calb biofilm kill: 11

What do the screens show for `O=C(O)c1ccccc1-c1csc(-c2ccccc2)n1`?
Calb biofilm kill: 16

How did O=C(CCCN1C(=O)c2ccccc2C1=O)Nc1ccccc1 do in these assays?
Calb biofilm kill: 13

What do the screens show for `CN(C)/C=N/c1ncc(-c2ncc(C(F)(F)F)cc2Cl)cn1`?
Calb biofilm kill: 16

What do the screens show for `Cc1ccccc1NC(=O)CSc1nnc(Cc2ccccc2)o1`?
Calb biofilm kill: 21

Results for C/C(CCc1oc2ccc(Cl)cc2c1-c1ccc(C)o1)=N\O ?
Calb biofilm kill: 13

Results for COC(=O)c1cccc(NC(=O)CSc2nnc(C)n2C)c1 ?
Calb biofilm kill: 0

Results for CC(=O)c1cc(CN2CCN(Cc3ccc(C)cc3)C(CCO)C2)cs1 (configuration not stated) ?
Calb biofilm kill: 12

How did O=C(c1ccccc1)c1ccccc1NC(=O)C1CCCN1Cc1ccccc1 (configuration not stated) do in these assays?
Calb biofilm kill: 12

Results for COC(=O)CCn1[nH]c(=O)c2ccccc2c1=O ?
Calb biofilm kill: 13

How did Cc1cccc(NC(=S)N(CCN2CCOCC2)Cc2cc3cc4c(cc3[nH]c2=O)OCCO4)c1 do in these assays?
Calb biofilm kill: 11

What do the screens show for `Cc1ccccc1OCC(=O)Nc1nnc(-c2ccco2)s1`?
Calb biofilm kill: 19

Results for NC(=O)COc1ccc(/C=N/NS(=O)(=O)c2ccccc2)cc1 ?
Calb biofilm kill: 20

Results for Cc1ccc(C)c(CSc2ncccc2C(=O)O)c1 ?
Calb biofilm kill: 16

What do the screens show for `CCNC(=O)CN(C1CCCCC1)S(C)(=O)=O`?
Calb biofilm kill: 5

What do the screens show for `CCc1nnc(NC(=O)CSc2nnc(CNC(=O)c3ccc(OC)c(OC)c3)o2)s1`?
Calb biofilm kill: 12

What do the screens show for `C/C(=N\NC(=O)c1ccc(O)cc1)c1cc2ccccc2o1`?
Calb biofilm kill: 3

How did O=c1c2ccccc2nc(/C=C/c2ccc([N+](=O)[O-])cc2)n1CCCO do in these assays?
Calb biofilm kill: 9

What do the screens show for `CCN1C(C#N)=C(C#N)N=C(C)CC1(C)C`?
Calb biofilm kill: 18

Results for C=C(C)C1Cc2cc3ccc(=O)oc3cc2O1 (configuration not stated) ?
Calb biofilm kill: 18

How did O=C(Cc1ccc(F)cc1)Nc1cccc(-c2cn3c(n2)SCC3)c1 do in these assays?
Calb biofilm kill: -18

Results for COc1cccc(-n2nnc3c(=O)n(CC(=O)Nc4ccccc4C)cnc32)c1 ?
Calb biofilm kill: 23

How did Cc1nc(C(=O)NCc2ccccc2)sc1C1(C)CC(c2ccccc2)=NO1 (configuration not stated) do in these assays?
Calb biofilm kill: 19

Results for O=C(CSc1cn(CC(=O)N2CCCCC2)c2ccccc12)NCC1CCCO1 (configuration not stated) ?
Calb biofilm kill: 17

Results for Cc1cc(C)c(NC(=O)CSc2nnc(-c3ccccn3)n2N)c(Cl)c1 ?
Calb biofilm kill: 28

How did CCOC(=O)N1CCN(C(=O)c2cn(CC)c3ccc(S(=O)(=O)N4CCC(C)CC4)cc3c2=O)CC1 do in these assays?
Calb biofilm kill: 16

Results for CC1(c2ccccc2)CC(C)(C)N2C(=O)C(=O)c3cccc1c32 (configuration not stated) ?
Calb biofilm kill: 22

Results for CCCN(CCC)S(=O)(=O)c1ccc(C(=O)OCCN2C(=O)c3cccc4c(N5CCOCC5)ccc(c34)C2=O)cc1 ?
Calb biofilm kill: 18

How did COc1cc2c(cc1OC)C[N+](C)(C)CC2 do in these assays?
Calb biofilm kill: 15

Results for NNC(=O)c1ccc(OCC2CC(c3ccc(Cl)cc3)=NO2)cc1 (configuration not stated) ?
Calb biofilm kill: 19

Results for O=C(NCc1cccnc1)c1ccc(N2CCOCC2)c([N+](=O)[O-])c1 ?
Calb biofilm kill: 6

Looked up by structure from the list above:
Results for O=C(NCc1cccnc1)c1ccc(N2CCOCC2)c([N+](=O)[O-])c1 ?
Calb biofilm kill: 6

Results for COc1cccc(-n2nnc3c(=O)n(CC(=O)Nc4ccccc4C)cnc32)c1 ?
Calb biofilm kill: 23

How did O=C(Cc1ccc(F)cc1)Nc1cccc(-c2cn3c(n2)SCC3)c1 do in these assays?
Calb biofilm kill: -18

Results for Cc1cc(C)c(NC(=O)CSc2nnc(-c3ccccn3)n2N)c(Cl)c1 ?
Calb biofilm kill: 28

(cont.)
How did N#Cc1cccc(C#N)c1Oc1ccc(S(=O)(=O)Nc2ccc(Cl)cc2)cc1 do in these assays?
Calb biofilm kill: 12

How did Cn1nccc1NC(=O)NC(=O)c1c(Cl)cccc1Cl do in these assays?
Calb biofilm kill: 9

How did COc1cc(/C=N/Nc2ccc(S(N)(=O)=O)cc2[N+](=O)[O-])cc(OC)c1O do in these assays?
Calb biofilm kill: 19

Results for O=C(CSc1nc2ccccc2c(=O)n1-c1ccccc1)NC(=O)CN1CCCC1=O ?
Calb biofilm kill: 14

What do the screens show for `CN1[C@@H](CC(=O)c2ccccc2)CCC[C@H]1C[C@H](O)c1ccccc1`?
Calb biofilm kill: 13

What do the screens show for `O=C1NC2(CCCCC2)C(=O)N1CCS(=O)(=O)Oc1ccc(Br)cc1`?
Calb biofilm kill: 13

How did O=C(CSc1nnc(-c2ccccc2Cl)o1)Oc1ccc(Br)cc1 do in these assays?
Calb biofilm kill: 12

What do the screens show for `COC(=O)C1=C(C)Nc2c(c(=O)n(C)c(=O)n2C)C1c1ccncc1` (configuration not stated)?
Calb biofilm kill: 9

How did C(=N\N1CCN(Cc2ccccc2)CC1)/c1cccnc1 do in these assays?
Calb biofilm kill: 2

What do the screens show for `Cc1cccc(NC(=O)Nc2ccncc2)c1`?
Calb biofilm kill: 16

What do the screens show for `O=C(Nc1ccccc1C(=O)NC1CCCCC1)c1ccco1`?
Calb biofilm kill: 12

What do the screens show for `CC(=O)Nc1cccc2c1C(=O)N(c1ccccc1OC(C)=O)C2=O`?
Calb biofilm kill: 2

How did Cc1cc(OC(=O)c2ccccc2Cl)ccc1N1C(=O)CCC1=O do in these assays?
Calb biofilm kill: 13

Results for Cc1ccnc(NC(=S)NC(=O)c2cccs2)c1 ?
Calb biofilm kill: 21

How did COc1ccccc1C1(CCNS(=O)(=O)c2ccc(C)cc2)CCOC(C(C)C)C1 (configuration not stated) do in these assays?
Calb biofilm kill: 16

Results for Cc1ccc(N(C(C)C(=O)NCc2ccncc2)S(C)(=O)=O)cc1C (configuration not stated) ?
Calb biofilm kill: 10

Ordered by molar mass (lowest first): some entries from above
How did Cn1nccc1NC(=O)NC(=O)c1c(Cl)cccc1Cl do in these assays?
Calb biofilm kill: 9

What do the screens show for `CN1[C@@H](CC(=O)c2ccccc2)CCC[C@H]1C[C@H](O)c1ccccc1`?
Calb biofilm kill: 13

How did Cc1cc(OC(=O)c2ccccc2Cl)ccc1N1C(=O)CCC1=O do in these assays?
Calb biofilm kill: 13

Results for Cc1ccc(N(C(C)C(=O)NCc2ccncc2)S(C)(=O)=O)cc1C (configuration not stated) ?
Calb biofilm kill: 10

Screening results as filed in PubChem BioAssay.
